# Compound activity as filed in PubChem BioAssay.
# PTHR1 ag: PTHR1 (human) receptor agonism; Q03431; HEK293 GP2 PTHR1 cells, GloSensor cAMP luminescence, 1 h; Potency, µM (series often up to 115 µM), for inactives: top-dose activation, usual class: activators; 0.075% of 410,000 active; also: nearly all actives have a fitted effect of over 55% in size; some results filed as inactive show a strong effect at the top dose; inactives centre near -15; many of its hits are not listed in these tables
#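 HEK-293-derived GP2 cells expressing PTHR1 and a GloSensor cAMP reporter, 3,000/well, plated overnight, given luciferin plus IBMX (each 0.5 mM as added) for 1 h at 37 °C, then compound for 1 h at 37 °C. Luminescence was read after 15 min at room temperature.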
# EPAC2 ag: agonists of human EPAC2 (RAPGEF4) | Q8WZA2 | Potency, µM (series often up to 154 µM), without a hit: at the highest dose activation, usual class: activators | EPAC2 activation, biochemical qHTS; response scale: 100% = 6.5 mM cAMP response | 0.079% of 360,000 active; also: nearly all actives have a fitted effect of over 50% in size
#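 Compounds were titrated in qHTS against a Rap1B-BODIPY-GDP (250 nM) complex with EPAC2 (100 nM) and GDP (50 uM). BODIPY-GDP release tracked at 480/540 nm over 30 min at room temperature, normalized to 6.5 mM cAMP.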
# EPAC1 antag: blocks human EPAC1 exchange factor. O95398. EPAC1 GEF assay, Rap1b-BODIPY-GDP exchange fluorescence. Potency, µM (series often up to 115 µM), for the others: at the top dose activity change, negative = inhibition, actives largely listed as inhibitors. 0.14% of 360,000 active. AID 720709;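 also: plate controls were vehicle for no effect and positive control for full effect; nearly all actives have a fitted effect of over 50% in size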
# EPAC2 antag: antagonists of human EPAC2; Q8WZA2; EPAC2 GEF exchange of Rap1B-BODIPY-GDP, fluorescence; Potency, µM (doses to about 114 µM), for the others: at the highest dose activity, negative = inhibition, hits mostly inhibitors; 0.18% of 360,000 active; AID 720708; also: % is scaled to controls: 0 for no effect and ±100 for the full control effect; nearly all actives have a fitted effect of over 45% in size; many of its hits are not listed in these tables
# EPAC1 agonist: agonists of human EPAC1. 0.073% of 360,000 active. EPAC1 agonist qHTS, biochemical assay; response scale: 100% = response to 6.5 mM cAMP. Potency, µM (top dose mostly 154 µM), for inactives: top-dose activation, most hits filed as activators. AID 720707; also: nearly all actives have a fitted effect of over 60% in size
#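 Fluorescent GDP-exchange assay: 100 nM EPAC1 with 250 nM Rap1B preloaded with BODIPY-GDP and 50 uM GDP; compounds tested as concentration series, 5 min at room temperature, then read every 5 min for 30 min (ex 480/em 540 nm); normalized to 6.5 mM cAMP.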
# Starred values were filed as active, the others as inactive; i = inactive; ? = inconclusive. Calls follow the shape of the dose curve; as a rule, active = well fitted curve in the direction sought with a large enough effect; inconclusive = small, poorly fitted or top-dose-only effect, or another doubt; inactive = no such curve, though single readings can be large; an effect the other way counts as inactive or inconclusive. Potency is read from the fitted curve at half-maximal effect.
SMILES,PTHR1 ag,EPAC2 ag,EPAC1 antag,EPAC2 antag,EPAC1 agonist
C#Cc1cccc(N2C(=O)C3C4C=CC(C3C2=O)C2C(=O)N(c3cccc(C#C)c3)C(=O)C42)c1 (centres undefined),-17%,-6%,0%,7%,-5%
CC(N)C(=O)NC(CO)C(O)C(N)C=O (centres undefined),i,0%,-4%,-6%,5%
NNC(=O)c1nc(-c2ccccc2)cc(-c2ccccc2)n1,-13%,9%,-14%,7%,8%
O=c1c(Cl)c(O)ccn1C1OC(CO)C(O)C1O (centres undefined),i,7%,12%,1%,4%
c1ccc(CN2CCC3CC2c2cc(N4CCOCC4)ccc23)cc1 (centres undefined),-2%,1%,5%,-6%,4%
CC(C)NCC(O)COc1ccc(CC(N)=O)cc1 (centres undefined),i,8%,-2%,13%,-10%
COc1ccc2cc(C(C)C(=O)O)ccc2c1 (centres undefined),i,-2%,-7%,6%,-21%
CC(=O)c1cn(S(=O)(=O)c2ccccc2)c2ccccc12,-7%,8%,-8%,?,12%
O=C(Cn1c(C(=O)c2ccccc2)nc2ccccc21)c1ccc(Cl)cc1,i,17%,-3%,-4%,15%
CC(C)NC[C@H](O)COc1ccc(CC(N)=O)cc1,-24%,0%,-3%,3%,-10%

# A stretch from further up, as a working copy:
SMILES,PTHR1 ag,EPAC2 ag,EPAC1 antag,EPAC2 antag,EPAC1 agonist
CC(N)C(=O)NC(CO)C(O)C(N)C=O (centres undefined),i,0%,-4%,-6%,5%
NNC(=O)c1nc(-c2ccccc2)cc(-c2ccccc2)n1,-13%,9%,-14%,7%,8%
O=c1c(Cl)c(O)ccn1C1OC(CO)C(O)C1O (centres undefined),i,7%,12%,1%,4%
c1ccc(CN2CCC3CC2c2cc(N4CCOCC4)ccc23)cc1 (centres undefined),-2%,1%,5%,-6%,4%
CC(C)NCC(O)COc1ccc(CC(N)=O)cc1 (centres undefined),i,8%,-2%,13%,-10%
COc1ccc2cc(C(C)C(=O)O)ccc2c1 (centres undefined),i,-2%,-7%,6%,-21%
CC(=O)c1cn(S(=O)(=O)c2ccccc2)c2ccccc12,-7%,8%,-8%,?,12%
O=C(Cn1c(C(=O)c2ccccc2)nc2ccccc21)c1ccc(Cl)cc1,i,17%,-3%,-4%,15%
CC(C)NC[C@H](O)COc1ccc(CC(N)=O)cc1,-24%,0%,-3%,3%,-10%

# At a glance, two of the compounds above.
SMILES,PTHR1 ag,EPAC2 ag,EPAC1 antag,EPAC2 antag,EPAC1 agonist
O=C(Cn1c(C(=O)c2ccccc2)nc2ccccc21)c1ccc(Cl)cc1,i,17%,-3%,-4%,15%
CC(C)NC[C@H](O)COc1ccc(CC(N)=O)cc1,-24%,0%,-3%,3%,-10%

# Not all compounds are listed. The share of hits here may be higher or lower than overall.
